Screening results (PubChem)
RE007 growth inh – qHTS Assay for Inhibitors of the HIV-1 protein Vpr | hit rate 0.21% among 360,000 | AID 651644, 2012 | Potency, µM (top dose mostly 92.2 µM), for the others: at the highest dose activity change, negative = less growth | S. pombe RE007 Vpr strain, BacTiter-Glo ATP luminescence, 24 h; control for the full effect not named in the record; active = well fitted falling curve with a large enough effect; inconclusive = small, poorly fitted or top-dose-only effect; inactive = no such curve, though single readings can be large or run the other way;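 further: on the % scale 0 is the no-effect control and ±100 the full control effect; nearly all actives have a fitted effect of over 50% in size; the assay follows cell death caused by Vpr and the record does not say whether a fall means rescue or toxicity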
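Fission yeast RE007 carrying one integrated HIV-1 vpr copy, seeded at OD 0.01 in PMG+AL medium with 23 nL pinned compound. Grown 24 h at 30 degrees; viability read by BacTiter-Glo luminescence after 5 min.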
Cruzain inh Det – qHTS Assay for Promiscuous and Specific Inhibitors of Cruzain (with detergent); Potency, µM, inactives show max response, negative = inhibition, most hits filed as inhibitors; hit rate 0.43% among 200,000; purified cruzain, Z-FR-AMC fluorescence, 0.01% Triton; Cruzipain (Trypanosoma cruzi), P25779; AID 1478, 2009;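 further: plate controls were neutral wells for no effect and buffer without enzyme for full effect; nearly all actives have a fitted effect of over 40% in size; top concentration of the series not given in the record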
Target sequence (P25779 123-467 limits assumed): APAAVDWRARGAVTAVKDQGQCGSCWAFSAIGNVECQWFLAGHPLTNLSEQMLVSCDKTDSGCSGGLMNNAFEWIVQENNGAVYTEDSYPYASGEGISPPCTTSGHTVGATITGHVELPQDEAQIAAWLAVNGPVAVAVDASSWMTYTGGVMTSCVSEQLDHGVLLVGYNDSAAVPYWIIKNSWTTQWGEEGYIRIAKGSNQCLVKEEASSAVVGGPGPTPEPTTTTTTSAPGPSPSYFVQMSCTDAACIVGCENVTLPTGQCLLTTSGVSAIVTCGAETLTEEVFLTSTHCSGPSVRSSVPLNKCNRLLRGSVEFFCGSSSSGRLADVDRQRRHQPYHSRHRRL
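Purified cruzain (1.5 nM final) was preincubated with compounds for 15 min at room temperature in 100 mM sodium acetate pH 5.5, 5 mM DTT, 0.01% Triton X-100. Reaction started with 2 uM Z-FR-AMC; AMC fluorescence change over 60 s gave activity.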
SARS PLpro yeast – qHTS of Yeast-based Assay for SARS-CoV PLP | S. cerevisiae expressing SARS-CoV PLpro, growth rescue; control for the full effect not named in the record | Potency, µM (highest dose often 32.9 µM), inactives show at the highest dose activity, positive = growth rescue | hit rate 0.19% among 330,000 | AID 485353, 2010; active means well fitted rising curve with a large enough effect; inconclusive means small, poorly fitted or top-dose-only effect; inactive means no such curve, though single readings can be large or run the other way; further: 0% is about no effect; nearly all actives have a fitted effect of over 55% in size; growth read by luminescence after 48 h
MARV entry inh – qHTS for inhibitors of binding or entry into cells for Marburg Virus; Marburg virus pseudotyped entry inhibition, cell reporter; control for the full effect not named in the record; about a third of the inactives were read at about 46 µM; Potency, µM (highest dose often 37.8 µM), inactives show top-dose activity change, negative = inhibition, usual class: inhibitors; hit rate 1.8% among 300,000; AID 540276, 2011; active = well fitted inhibition curve with a large enough effect; inconclusive = small, poorly fitted or top-dose-only effect, or effect the other way; inactive = flat fitted curve, though single readings scatter; tested in HEK293 cells; about a fifth of its hits are not listed in these tables; further: on the % scale 0 is the no-effect control and ±100 the full control effect; luciferase read-out
Cruzain inh noDet – qHTS Assay for Promiscuous and Specific Inhibitors of Cruzain (without detergent). Cruzipain (Trypanosoma cruzi), P25779. purified cruzain, Z-FR-AMC fluorescence, no detergent. Potency, µM, without a hit: max response, negative = inhibition, most hits filed as inhibitors. hit rate 2.3% among 200,000. AID 1476, 2009;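 further: plate controls were enzyme without inhibitor for no effect and buffer without enzyme for full effect; nearly all actives have a fitted effect of over 40% in size; top concentration of the series not given in the record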
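Detergent-free condition (0.00005% Triton X-100) in acetate buffer pH 5.5 with DTT. 1.5 nM enzyme and compound were pre-mixed 15 min, then 2 uM Z-FR-AMC substrate added; reaction progress from fluorescence change between first and third reads (60 s).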
LASV entry inh – qHTS for Inhibitors of binding or entry into cells for Lassa Virus; Lassa virus pseudotype entry inhibition, cell reporter; control for the full effect not named in the record; Potency, µM (titrated, usually from 37.9 µM), for inactives: top-dose activity change, negative = inhibition, actives largely listed as inhibitors; hit rate 1.2% among 300,000; AID 540256, 2011; active means well fitted inhibition curve with a large enough effect; inconclusive means small, poorly fitted or top-dose-only effect, or effect the other way; inactive means flat fitted curve, though single readings scatter; tested in HEK293 cells; further: on the % scale 0 is the no-effect control and ±100 the full control effect; nearly all actives have a fitted effect of over 50% in size; luciferase read-out
2A StopGo – High Throughput Screening for Foot and Mouth Disease Virus Antivirals; hit rate 1.2% among 410,000; AID 1159524, 2015; Potency, µM (series often up to 57.9 µM), inactives show top-dose signal change, negative = less light; human cells with a luciferase reporter of 2A StopGo recoding; control for the full effect not named in the record; active = well fitted falling curve with a large enough effect; inconclusive = small, poorly fitted or top-dose-only effect; inactive = no such curve, though single readings can be large or run the other way; tested in HEK293T cells; further: on the % scale 0 is the no-effect control and ±100 the full control effect; nearly all actives have a fitted effect of over 45% in size; luciferase light after 4 h
NS1 function inh – qHTS Assay for Inhibitors of Influenza NS1 Protein Function | hit rate 0.4% among 270,000 | Potency, µM (highest dose often 46.1 µM), for inactives: top-dose activity, positive = more growth | S. cerevisiae slowed by influenza A NS1, growth recovery by OD600; active means well fitted rising curve with a large enough effect; inconclusive means small, poorly fitted or top-dose-only effect; inactive means no such curve, though single readings can be large or run the other way; further: nearly all actives have a fitted effect of over 50% in size
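Compounds were scored for reversing the slow growth caused by influenza A NS1 in S. cerevisiae, measured by optical density at 600 nm. Assay medium contained 2% galactose at pH 6.0; NS1-free yeast of the same strain were the positive control.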
Starred values were filed as active, the others as inactive; & = joins results of further samples; [ ] = remark or other dose. Unless noted, the call rests on the fitted dose curve; in most records, active means well fitted curve in the direction sought with a large enough effect; inconclusive means small, poorly fitted or top-dose-only effect, or another doubt; inactive means no such curve, though single readings can be large; an effect the other way counts as inactive or inconclusive. Potency means the concentration at half of the fitted maximal effect.

Screening CC(=O)Nc1ccc(S(=O)(=O)Nc2nc3ccccc3nc2Sc2nncn2C)cc1 returned RE007 growth inh -7%, Cruzain inh Det -3.4%, SARS PLpro yeast 5%, MARV entry inh -1%&10%, Cruzain inh noDet -19%, LASV entry inh inconclusive, 2A StopGo 39%[activator] and NS1 function inh inconclusive.
For Cc1ccc(NC(=O)CN2CCc3ccccc3C2)cc1S(=O)(=O)N1CCOCC1 the results were Cruzain inh Det -0.3%, SARS PLpro yeast -3%, MARV entry inh -19%, Cruzain inh noDet 2%, LASV entry inh inconclusive, 2A StopGo -18% and NS1 function inh 5%.
`Cc1ccc(-c2nn(-c3ccccc3)cc2/C=N/NC(=O)CSc2nnc(C)n2-c2ccccc2)cc1` gave RE007 growth inh 3%, Cruzain inh Det -4.4%, SARS PLpro yeast -7%, MARV entry inh -29%, Cruzain inh noDet 22%, LASV entry inh inconclusive, 2A StopGo 19% and NS1 function inh 24%.
Screening COc1ccccc1NC(=S)NNC(=O)c1nn(C)c(C)c1Cl returned RE007 growth inh 2%, Cruzain inh Det 4.3%, SARS PLpro yeast 8%, MARV entry inh 2%, Cruzain inh noDet 2%, LASV entry inh 21%, 2A StopGo 0% and NS1 function inh 4%.
Screening CCOC(=O)C1CCCN(C(=O)/C=C/c2ccc([N+](=O)[O-])cc2)C1 (stereo not given) returned Cruzain inh Det -4.2%, SARS PLpro yeast -11%, MARV entry inh 15%, Cruzain inh noDet 2%, LASV entry inh -5%, 2A StopGo -18% and NS1 function inh -1%.
For N#Cc1ccccc1Cn1cc(C(=O)c2ccco2)c2ccccc21 the results were RE007 growth inh 3%, Cruzain inh Det -6.7%, SARS PLpro yeast -10%, MARV entry inh inconclusive, Cruzain inh noDet -9%, LASV entry inh 23%, 2A StopGo -12% and NS1 function inh -39%.
Screening Cc1cc(C)cc(N(CC(=O)NC2CCCC2)C(=O)CNC(=O)c2cccs2)c1 returned RE007 growth inh -25%, SARS PLpro yeast 0%, MARV entry inh inconclusive, 2A StopGo 0% and NS1 function inh 2%.
For Cc1ccc(OCC(=O)OCc2cc(=O)n3ccsc3n2)cc1C the results were Cruzain inh Det -6.9%, Cruzain inh noDet -17%, LASV entry inh 1%[46.1 µM] and 2A StopGo -1%.
`COc1ccccc1/C=N/NC(=O)c1nnn(-c2nonc2N)c1-c1cccs1` gave RE007 growth inh 21%, SARS PLpro yeast 7%, 2A StopGo -16% and NS1 function inh 2.2µM*.
For Cc1cc2c(cc1[N+](=O)[O-])NC(CNC(C)C)CC2 (stereo not given) the results were RE007 growth inh -5%, SARS PLpro yeast -1%, MARV entry inh -21%[46.1 µM], LASV entry inh 1%[46.1 µM], 2A StopGo -8% and NS1 function inh 0%.
For CCOC(=O)c1ccc(NC(=O)COc2ccc(S(=O)(=O)NC(C)CC)cc2)cc1 (stereo not given) the results were RE007 growth inh 4%, Cruzain inh Det -1.8%, SARS PLpro yeast 4%, MARV entry inh -18%, Cruzain inh noDet -3%, LASV entry inh -19%, 2A StopGo -6% and NS1 function inh -15%.
O=C(O)C1C2C=CC(C2)C1C(=O)Nc1ccc(Cl)c(Cl)c1 (stereo not given) was read as RE007 growth inh 5%, SARS PLpro yeast 0%, MARV entry inh 3%[46.1 µM], LASV entry inh -2%[46.1 µM], 2A StopGo 6% and NS1 function inh -1%.
For COc1ccc(N(C(=O)c2ccco2)C(C(=O)NC2CCCC2)c2ccc(OC)c(OC)c2)cc1 (stereo not given) the results were RE007 growth inh 10%, SARS PLpro yeast -1%, MARV entry inh -1%[46.1 µM], LASV entry inh -1%[46.1 µM], 2A StopGo 8% and NS1 function inh -12%.
O=C(Cn1nnc(-c2ccccc2F)n1)Nc1ccc(C(=O)N2CCOCC2)cc1 was read as RE007 growth inh -6%, Cruzain inh Det 2.5%, SARS PLpro yeast 3%, MARV entry inh -2%, Cruzain inh noDet 0%, LASV entry inh 4%, 2A StopGo -8% and NS1 function inh -17%.
CC(C)=NOc1nc(N(C)C)nc(N2CCOCC2)n1 was read as RE007 growth inh -6%, SARS PLpro yeast 0%, MARV entry inh -14%, LASV entry inh 15%, 2A StopGo -6% and NS1 function inh 7%.
For Cc1ccc(Nc2nc(Nc3ccc(C)cc3)nc(SC3=NCCS3)n2)cc1 the results were RE007 growth inh -17%, Cruzain inh Det 1.9%, SARS PLpro yeast 28%, MARV entry inh inconclusive, Cruzain inh noDet 25µM*, LASV entry inh inconclusive, 2A StopGo -2% and NS1 function inh 25%.
For O=C(c1cc2ccccc2oc1=O)N(Cc1ccccc1)C1CCS(=O)(=O)C1 (stereo not given) the results were RE007 growth inh -11%, Cruzain inh Det -5.3%, SARS PLpro yeast -5%, MARV entry inh inconclusive, Cruzain inh noDet 5%, LASV entry inh 3%, 2A StopGo 67%[activator] and NS1 function inh 2%.
Screening COc1ccc(OC)c(-c2csc(NC(=O)Cc3ccccc3)n2)c1 returned RE007 growth inh -3%, SARS PLpro yeast -8%, MARV entry inh inconclusive, LASV entry inh inconclusive, 2A StopGo 26% and NS1 function inh 1%.
Screening O=c1[nH]c(CN2CCN(c3ccccc3O)CC2)nc2ccccc12 returned RE007 growth inh 25%, Cruzain inh Det 0.7%, SARS PLpro yeast -2%, MARV entry inh -12%, Cruzain inh noDet -4%, LASV entry inh -10%, 2A StopGo -23% and NS1 function inh 0%.
For CCN1C(=NCCc2ccccn2)N[C@@H](c2cccc(F)c2)C(C(=O)OC)=C1C the results were RE007 growth inh -3%, SARS PLpro yeast -6%&1%, 2A StopGo -4% and NS1 function inh -11%&3%.
`O=C(CSCc1ccco1)N1CCc2ccccc21` gave RE007 growth inh -20%, SARS PLpro yeast 14%, MARV entry inh 7%[46.1 µM], LASV entry inh -26%[46.1 µM], 2A StopGo 42%[activator] and NS1 function inh -3%.
Screening O=C(CCc1nnc2ccc(NCc3ccco3)nn12)Nc1ccccn1 returned RE007 growth inh -7%, SARS PLpro yeast 3%, 2A StopGo -1% and NS1 function inh 15%.
`Cc1ccnn1C(C)C(=O)O` (stereo not given) gave RE007 growth inh -8%, SARS PLpro yeast 3%, MARV entry inh 4%[46.1 µM], LASV entry inh 0% and 2A StopGo 20%.
`COc1ccc(OCC(=O)Nc2cccc3cccnc23)cc1` gave RE007 growth inh 8%[3.69 µM], Cruzain inh Det -4.1%, SARS PLpro yeast -6%, MARV entry inh -22%, Cruzain inh noDet 1%, LASV entry inh 2%, 2A StopGo 9% and NS1 function inh -114%.
For CN(c1ccccc1)S(=O)(=O)c1ccc(C(=O)OCC(=O)NCc2cccs2)cc1 the results were RE007 growth inh -8%, SARS PLpro yeast 2%, 2A StopGo -4% and NS1 function inh -32%.
Screening O=C(C1CCN(S(=O)(=O)c2c(Cl)cccc2Cl)CC1)N1CCCC1 returned RE007 growth inh 21%, SARS PLpro yeast 1%, MARV entry inh 5%, LASV entry inh -6% and 2A StopGo 11%.
For O=C(/C=C/c1cccc([N+](=O)[O-])c1)Nc1ccc(NC(=O)c2cccs2)cc1 the results were RE007 growth inh -6%, Cruzain inh Det -8.2%, SARS PLpro yeast 6%, MARV entry inh -8%, Cruzain inh noDet 20µM*, LASV entry inh 2%, 2A StopGo -24% and NS1 function inh 9%.
Screening COc1ccccc1C(=O)NC(=O)COC(=O)C1(C)CC1(Cl)Cl (stereo not given) returned RE007 growth inh 21%, SARS PLpro yeast -9%, MARV entry inh 2%, LASV entry inh 9% and 2A StopGo 23%.
`CCOC(=O)NCc1ccccc1` gave RE007 growth inh 5%, SARS PLpro yeast -2%, 2A StopGo -13% and NS1 function inh -10%.
For Cc1cccc(N2C(=O)C(CC(=O)Nc3cccc(F)c3)N(Cc3cccs3)C2=O)c1 (stereo not given) the results were Cruzain inh Det -1.6%, Cruzain inh noDet -4%, LASV entry inh 4%[46.1 µM] and 2A StopGo 12%.
`CC(C)CNC(=O)[C@H](Cc1ccccc1)NC(=O)c1cccs1` gave RE007 growth inh 12%, SARS PLpro yeast 2%, MARV entry inh 14%[46.1 µM], LASV entry inh 3%, 2A StopGo 8% and NS1 function inh 5%.
Cc1nn(CCC(=O)NNC(=S)Nc2ccccc2)c(C)c1Br was read as Cruzain inh Det -1.4%, SARS PLpro yeast 10%, MARV entry inh 7%, Cruzain inh noDet 8%, LASV entry inh 1%, 2A StopGo -4% and NS1 function inh 3%.
Screening Cc1cc(S(=O)(=O)N2CCCC2C(=O)N2CCOCC2)c(C)cc1Cl (stereo not given) returned RE007 growth inh 7%, Cruzain inh Det 2.1%, SARS PLpro yeast -3%, MARV entry inh -16%, Cruzain inh noDet 0%, LASV entry inh -5%, 2A StopGo 0% and NS1 function inh -1%.
CN(CCc1ccccc1)C(=O)c1cc(COc2cccc(C(F)(F)F)c2)on1 was read as RE007 growth inh -1%, SARS PLpro yeast -21%, 2A StopGo 13% and NS1 function inh -37%.
`COc1cc(C)ccc1OCc1cc(C(=O)N(C)CCCN2CCOCC2)no1` gave RE007 growth inh -5%, SARS PLpro yeast 1%, 2A StopGo 35%[activator] and NS1 function inh -8%.
`O=C(CC1SC(N2CCCC2)=NC1=O)Nc1ccc(C(=O)NCCc2ccc(F)cc2)cc1` (stereo not given) gave RE007 growth inh -9%, SARS PLpro yeast -7%, MARV entry inh 16%, LASV entry inh 0% and 2A StopGo -9%.
`CC1CN(S(=O)(=O)c2cccc(C(=O)Nc3ccccc3N3CCCC3)c2)CC(C)O1` (stereo not given) gave RE007 growth inh -12%, SARS PLpro yeast 0%, MARV entry inh inconclusive, LASV entry inh inconclusive and 2A StopGo inconclusive.

Random draw from the library; overall some 4.6% were active at least once.
